GALR2 ag = agonists of human galanin receptor 2 (GALR2); activation, %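 (tested at 5 µM)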; O43603; GALR2-expressing cells, agonist activation read-out; 140,000 compounds, 0.48% hits;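 active means above mean plus 3 SD of all compounds, about 5% in these data, not always enough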;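 further: 0% = vehicle buffer wells and 100% = reference agonist at full effect; tested in CHO reporter cells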
HSV replic up = HSV replication enhancement; HSV replication augmentation in cells, fold increase; maximum fold increase; 220,000 compounds, 0.005% hits; AID 1956;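 active means peak rise of 1.5-fold or more in the series; tested in PC3 cells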;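 further: first round at 10 µM; read as green reporter fluorescence; hits show the peak of a series up to 25 µM; 1 = signal of infected wells without compound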
INS promoter inh = TRM-6 insulin promoter activity inhibition; TRM-6 cells (human fetal islet line), insulin promoter-eGFP reporter, imaging; reporter expression induced with tamoxifen; inhibition, % at 2 µM; 130,000 compounds, 0.9% hits;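 active means inhibition above the mean plus 3 SD, with well images judged a real hit on visual review, cut at about 60% in these data, passing the limit was not always enough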
RGS16-Gao = modulates binding between human RGS16 and Galphao; O15492+P09471; bead-based flow cytometry RGS16-Galphao binding, fluorescence; actives lie on both sides; binding response (% of control), % at 10 µM; 220,000 compounds, 0.38% hits; AID 1441;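 active means below 25% or above 175%, edge rows of some plates excepted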;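 further: Galphao activated by GDP with aluminum fluoride before binding; 100% = wells without compound and 0% = beads without RGS; some results beyond the cut were filed as inactive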
PKD1 inh = inhibitors of human PKD1 kinase | Q15139 | inhibition, %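 (about 10 µM by stock and volumes)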 | 200,000 compounds, 0.056% hits | PKD1 kinase fluorescence polarization assay;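 active means inhibition of 50% or more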;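 further: controls were vehicle for no effect and a reference inhibitor for full effect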
Target sequence (Q15139 whole entry, looked up): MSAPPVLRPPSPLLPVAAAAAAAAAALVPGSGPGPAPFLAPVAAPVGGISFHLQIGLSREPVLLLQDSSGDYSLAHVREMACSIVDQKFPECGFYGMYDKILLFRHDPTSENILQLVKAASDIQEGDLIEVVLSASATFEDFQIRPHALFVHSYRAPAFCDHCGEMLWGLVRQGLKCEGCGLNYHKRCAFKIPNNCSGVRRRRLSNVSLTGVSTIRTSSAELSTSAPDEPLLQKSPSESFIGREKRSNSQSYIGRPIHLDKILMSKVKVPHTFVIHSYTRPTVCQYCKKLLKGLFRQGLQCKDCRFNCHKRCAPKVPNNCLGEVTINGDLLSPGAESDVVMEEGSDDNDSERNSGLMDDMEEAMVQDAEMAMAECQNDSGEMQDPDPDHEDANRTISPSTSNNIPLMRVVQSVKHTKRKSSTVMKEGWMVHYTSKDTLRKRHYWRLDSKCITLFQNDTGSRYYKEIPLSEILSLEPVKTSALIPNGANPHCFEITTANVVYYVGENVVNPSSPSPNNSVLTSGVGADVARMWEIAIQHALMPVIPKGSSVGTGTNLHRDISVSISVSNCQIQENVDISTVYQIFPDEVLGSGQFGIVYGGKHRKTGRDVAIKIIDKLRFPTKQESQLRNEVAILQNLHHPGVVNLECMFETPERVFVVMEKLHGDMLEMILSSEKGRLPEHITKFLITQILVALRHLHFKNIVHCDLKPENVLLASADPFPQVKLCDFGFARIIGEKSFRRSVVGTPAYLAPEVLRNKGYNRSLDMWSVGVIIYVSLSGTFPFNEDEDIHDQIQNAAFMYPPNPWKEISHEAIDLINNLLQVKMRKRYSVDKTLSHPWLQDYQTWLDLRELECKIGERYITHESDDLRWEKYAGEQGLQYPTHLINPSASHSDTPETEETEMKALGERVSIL
INS promoter inh cell count = also measured in INS promoter inh; calls as there; normalized cell count, %; measured here: cell count, toxicity; reference of the scale not given here;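 cells exposed to compound for 48 h; stained nuclei by imaging scaled within each plate; lower means fewer cells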
HSV replic up primary fold = second read-out of HSV replic up, no call of its own (marks repeat the call); fold increase; compound at 10 µM; measured here: primary screen fold increase 10 uM; tested in PC3 cells;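 GFP signal in the first replicate; 1 = infected wells without compound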
Numbers without * were called inactive; i = inactive; · = no result given. Rows were taken by chance (roughly 1.3% active in at least one column).

Structure	PKD1 inh	GALR2 ag	HSV replic up	INS promoter inh cell count	INS promoter inh	HSV replic up primary fold	RGS16-Gao
Cc1cc(C(=O)OCC(=O)Nc2ncc(C(F)(F)F)cc2Cl)c(C)o1	-1	-2.1	i	·	·	0.88	103
O=C(O)c1ccc2c(c1)C1C=CCC1C(c1ccncc1)N2 (centres undefined)	·	·	i	·	·	1.1	97
Cc1ccc(OC(=O)c2ccc(S(=O)(=O)N(C)C)cc2)c(-n2nc3ccccc3n2)c1	-14	-2.1	i	·	·	0.92	102
O=C(CCSc1nnc2ccccn12)Nc1ccc2c(c1)OCO2	-1	·	i	109	0	0.89	100
Nc1ncnc2c1CCC2	-12	-3.0	i	141	18	0.98	98
Cc1cc(C)n(C(=O)/C(C#N)=N\Nc2ccccc2[N+](=O)[O-])n1	-1	·	i	91	0	0.98	110
CCOc1ccccc1CN1CCN(Cc2nc3c(s2)CCCC3)CC1CCO (centres undefined)	-4	·	i	86	-7	1.1	121
COc1ccc(/C=N/NC(=O)CSCC(=O)Nc2ccccc2)cc1	·	·	i	·	·	1.1	87
CC(=O)N(C(C)=O)S(=O)(=O)c1ccc(N=NN2CCOCC2)cc1	-1	-0.8	i	105	-113	1.1	103
COc1cccc(C2CC(c3ccc(NS(C)(=O)=O)cc3)=NN2C(=O)c2ccccc2)c1OC (centres undefined)	-1	·	i	91	0	1.1	100
CC1CCC/C(=N\NC(=S)Nc2ccccc2)C1 (centres undefined)	-11	-0.4	i	163	6	0.94	112
COc1ccc(C(=O)OCC(=O)NCc2ccco2)cc1S(=O)(=O)N1CCN(c2cccc(Cl)c2)CC1	-2	-1.4	i	98	3	1.1	100
Cc1cccn2c(=O)c3cc(C#N)c(=O)n(-c4c(C)n(C)n(-c5ccccc5)c4=O)c3nc12	-1	-0.8	i	93	42	0.74	101
O=C(CSc1nc2cc(S(=O)(=O)N3CCOCC3)ccc2o1)NC1CCCc2ccccc21 (centres undefined)	1	-0.8	i	101	-63	1	61
CC1=C/C(=C\c2ccc(Br)o2)C(=O)O1	13	-1.1	i	·	·	1	93

The list goes on.
Structure	PKD1 inh	GALR2 ag	HSV replic up	INS promoter inh cell count	INS promoter inh	HSV replic up primary fold	RGS16-Gao
O=C(CSc1nc2ccccc2n1Cc1ccccc1)N/N=C/c1ccco1	9	-0.9	i	121	0	1.1	94
COc1ccc(CN(C(=O)c2cccs2)C(C(=O)NC2CCCCC2)c2ccc3ncccc3c2)cc1 (centres undefined)	1	0.3	·	78	30	·	93
COc1nc(-c2ccc(Cl)cc2)ccc1-c1noc(-c2cccs2)n1	-11	-3.4	i	153	-28	0.8	105
O=C(NCc1ccccc1)C(=O)NCC1OCCN1C(=O)c1ccc(Cl)cc1 (centres undefined)	-4	·	i	111	-178	0.96	112
CCCc1[nH]nc2c1C(c1cc(OC)cc(OC)c1)C(C#N)=C(N)O2 (centres undefined)	-6	-0.6	i	50	11	0.83	100
Cc1cc(C)n(-c2nc(SCC(=O)O)c3c4c(sc3n2)CCCC4)n1	·	·	i	·	·	0.94	105
CCOc1cc(C(=O)N(C)Cc2cc3ccccc3[nH]c2=O)cc(OCC)c1OCC	-1	-0.5	i	159	-16	0.88	97
CN(Cc1cn(C)nc1-c1ccc(Oc2ccccc2)cc1)C1CCOC1 (centres undefined)	·	·	i	·	·	0.89	96
COc1ccc(CNC(=O)COC(=O)c2ccccc2C(=O)c2ccccc2)cc1	4	·	i	·	·	1	104
Cc1cc(C)nc(Nc2ccccc2Br)n1	6	-1.4	·	·	·	·	87
CCn1nnnc1SCC(=O)NCc1ccc2c(c1)OCO2	-1	-1.2	i	117	31	0.9	97
CC(=O)n1cc([C@@H]2C=C(C(=O)Nc3ccccc3)O[C@H](OCCCCO)C2)c2ccccc21	-6	·	i	·	·	0.94	99
O=C(Nc1cccs1)Nc1c(F)c(F)c(F)c(F)c1F	1	0.3	i	175	4	1	101
CC(C)c1nnc(NC(=O)CSc2nnc(NC(=O)c3c(F)cccc3F)s2)s1	2	·	i	74	42	1.1	99
COC(=O)Cn1ccc(N(C)C)c(C#N)c1=O	-3	-1.8	i	·	·	1.2	102

Copied from the entries so far (12 entries):
Structure	PKD1 inh	GALR2 ag	HSV replic up	INS promoter inh cell count	INS promoter inh	HSV replic up primary fold	RGS16-Gao
COc1nc(-c2ccc(Cl)cc2)ccc1-c1noc(-c2cccs2)n1	-11	-3.4	i	153	-28	0.8	105
O=C(NCc1ccccc1)C(=O)NCC1OCCN1C(=O)c1ccc(Cl)cc1 (centres undefined)	-4	·	i	111	-178	0.96	112
CCCc1[nH]nc2c1C(c1cc(OC)cc(OC)c1)C(C#N)=C(N)O2 (centres undefined)	-6	-0.6	i	50	11	0.83	100
Cc1cc(C)n(-c2nc(SCC(=O)O)c3c4c(sc3n2)CCCC4)n1	·	·	i	·	·	0.94	105
CCOc1cc(C(=O)N(C)Cc2cc3ccccc3[nH]c2=O)cc(OCC)c1OCC	-1	-0.5	i	159	-16	0.88	97
CN(Cc1cn(C)nc1-c1ccc(Oc2ccccc2)cc1)C1CCOC1 (centres undefined)	·	·	i	·	·	0.89	96
COc1ccc(CNC(=O)COC(=O)c2ccccc2C(=O)c2ccccc2)cc1	4	·	i	·	·	1	104
Cc1cc(C)nc(Nc2ccccc2Br)n1	6	-1.4	·	·	·	·	87
CCn1nnnc1SCC(=O)NCc1ccc2c(c1)OCO2	-1	-1.2	i	117	31	0.9	97
CC(=O)n1cc([C@@H]2C=C(C(=O)Nc3ccccc3)O[C@H](OCCCCO)C2)c2ccccc21	-6	·	i	·	·	0.94	99
O=C(Nc1cccs1)Nc1c(F)c(F)c(F)c(F)c1F	1	0.3	i	175	4	1	101
CC(C)c1nnc(NC(=O)CSc2nnc(NC(=O)c3c(F)cccc3F)s2)s1	2	·	i	74	42	1.1	99

Next part.
Structure	PKD1 inh	GALR2 ag	HSV replic up	INS promoter inh cell count	INS promoter inh	HSV replic up primary fold	RGS16-Gao
COc1ccccc1CNC(=O)COC(=O)[C@H](Cc1c[nH]c2ccccc12)NC(=O)c1cccs1	4	-0.7	i	113	-97	0.83	104
Cc1ccc(SCC(=O)O/N=C(\N)c2ccc([N+](=O)[O-])cc2)cc1	-4	-2.0	i	60	-3	0.81	100
CC(C)(C)c1[nH]nc2c1C(c1ccsc1)C(C#N)=C(N)O2 (centres undefined)	-1	·	i	75	-50	1	97
COc1cccc(NC(=S)N/N=C2\CC(C)(C)Oc3ccc(O)cc32)c1	-1	-1.7	i	·	·	1	109
CC(=O)Nc1ccc2c(c1)OCCO2	-9	-1.5	i	115	8	0.97	120
COC(=O)CNC(c1ccccc1)c1cc(Br)ccc1NC(=O)CCN1CCOCC1 (centres undefined)	-3	0.4	i	89	-33	0.96	102
CCn1c(CN2CCN(Cc3ccc(C)cc3)C(CCO)C2)nc2ccccc21 (centres undefined)	3	·	i	·	·	0.94	105
COc1ccc(CCN2CC(C(=O)Nc3cccc(C(C)=O)c3)CC2=O)cc1OC (centres undefined)	-5	·	i	·	·	1	102
O=C1CCc2cc(S(=O)(=O)N3CCC(C(=O)NC4CCCC4)CC3)ccc2N1	-10	-2.0	i	·	·	0.93	108
CC(C)OC(=O)CSc1nnc(-c2cnccn2)n1Cc1ccco1	-8	-0.2	i	111	47	0.95	102
Cc1cccn2c(=O)c(C=NCc3ccccc3)c(NCCO)nc12	2	-0.1	i	·	·	0.82	133
COC(=O)c1ccc(-n2c(C)ccc2-c2ccccc2)cc1	-16	-5.5	i	112	4	0.78	98
CC(C)CC(NC(=O)OC(C)(C)C)c1cn([C@@H](CCCCNC(=O)OC(C)(C)C)C(=O)N2CCN(C(=O)OC(C)(C)C)CC2)nn1 (some centres undefined)	2	·	i	·	·	0.9	98
COc1ccc(C(=O)OCC(=O)Nc2ccc(F)c(F)c2F)cc1OC	5	0.5	i	109	-18	1	101
CCc1cc(C(=O)OC)c(N2C(=O)C3C4C=CC(C4)C3C2=O)s1 (centres undefined)	1	-0.8	i	111	53	1.3	91

(further entries)
Structure	PKD1 inh	GALR2 ag	HSV replic up	INS promoter inh cell count	INS promoter inh	HSV replic up primary fold	RGS16-Gao
Cc1cc(Oc2ccc(N)cn2)cc(C)c1Cl	·	·	i	·	·	1.4	104
COc1ccccc1N(CC(=O)N1CCCCC1)S(=O)(=O)c1ccccc1	-11	-1.1	i	103	19	1	102
CCOc1ccc(C2c3c(oc4ccccc4c3=O)C(=O)N2c2ccc(C)cn2)cc1OC (centres undefined)	7	0.9	i	·	·	1.1	103
CCc1cc2c(=O)c(-c3ccc(F)cc3)c(C(F)(F)F)oc2cc1OCC(=O)O	-11	·	i	85	-20	0.93	99
O=C1NCCN/C1=C\C(=O)c1ccc(Br)cc1	·	·	i	·	·	0.96	97
O=c1c2ccccc2cnn1Cc1n[nH]c(=S)n1C1CC2CCC1C2 (centres undefined)	·	·	i	·	·	0.93	103
CC1CCC2C(=O)N(c3ccc(NC4CCN(Cc5ccccc5)CC4)c([N+](=O)[O-])c3)C(=O)C2C1 (centres undefined)	-8	·	·	78	46	·	102
O=C(O)C1CCN(c2c([N+](=O)[O-])cc(C(F)(F)F)cc2[N+](=O)[O-])CC1	1	-0.6	i	80	0	0.9	106
N=c1c2c(ncn1Cc1ccco1)Oc1cc(O)ccc1C2c1ccccc1 (centres undefined)	·	·	i	·	·	1.1	99
CCOC(=O)c1ccccc1NC(=O)CN1C(=O)c2ccccc2S1(=O)=O	-6	-0.7	i	137	-33	0.92	96
CC(C)NS(=O)(=O)c1ccc(OCC(=O)NCc2ccco2)cc1	-2	·	i	·	·	0.92	98
COC(=O)c1cc2ccccn2c2c(C(=O)OC)c(C(=O)OC)cc1-2	1	0.0	i	40	-38	1.1	101
CS(=O)(=O)NNC(=O)CN1C(=O)C2C3C=CC(C3)C2C1=O (centres undefined)	-4	·	i	·	·	0.97	93
O=C(NCc1ccc(F)cc1)c1cnc(-c2ccccn2)nc1C(F)(F)F	0	-0.7	i	120	-42	1	95
COCCn1c(=NC(=O)c2cc(Cl)sc2Cl)sc2cc(S(N)(=O)=O)ccc21	4	0.1	i	107	-32	0.69	100

(list continues)
Structure	PKD1 inh	GALR2 ag	HSV replic up	INS promoter inh cell count	INS promoter inh	HSV replic up primary fold	RGS16-Gao
Cc1cccc(-c2nc3ccccc3c(=O)n2NC(=O)Cc2ccc(Cl)cc2)c1	6	0.8	i	184	14	0.95	115
O=C(NNc1cc(Cl)cc(Cl)c1)c1c(F)cccc1Cl	·	·	i	·	·	0.84	92
CCn1cc(C(=O)Nc2ccc(C)cc2C)c(=O)c2ccc(C)nc21	-3	·	i	101	0	0.83	107
CN(C)c1ccc(C(=O)NN2C(=O)c3ccccc3C2=O)cc1	-12	·	i	82	33	0.91	78
Nc1[nH]c(N=NC(=O)c2ccccc2)c2ccccc12	7	-3.3	i	133	11	0.98	69
COC(=O)c1sccc1NC(=O)Cn1nnc(-c2ccc(C)cc2)n1	-4	-1.0	i	71	-54	0.95	117
O=C(O)C1CC=CCC1C(=O)Nc1cc(Cl)ccc1Cl (centres undefined)	1	-1.0	i	100	26	0.95	102
CCCC[N+](C)(C)CCC(=O)NC(C)(C)CS(=O)(=O)[O-]	0	-1.0	i	70	13	0.94	98
CC1Cc2ccccc2N1CC(=O)NC(c1ccccc1)c1ccccc1 (centres undefined)	10	-1.4	i	64	-7	1	98
CCCC1=C(C(=O)OCC)C(c2ccc(N(C)C)cc2)n2ncnc2N1 (centres undefined)	2	0.8	i	93	-12	0.84	97
O=C(N/N=C/C=C/c1ccccc1)C1CC1(c1ccccc1)c1ccccc1 (centres undefined)	-9	-2.3	i	148	-60	0.86	104
Cc1cc(Cl)ccc1NC(=O)CSc1nnc(Cc2cccs2)n1Cc1ccco1	0	0.1	i	74	-43	1	67
CCN(CC)C1=NS(=O)(=O)c2cc([N+](=O)[O-])ccc21	4	·	i	·	·	0.9	103
CCOC(=O)c1ccc2nc(C)c(CCC(C)=O)c(Cl)c2c1	1	0.7	i	88	9	0.88	8.4*
O=C1C2C3C=CC(C3)C2C(=O)N1CCCCCCN1C(=O)C2C3C=CC(C3)C2C1=O (centres undefined)	6	·	i	87	-75	0.95	107
Cc1ccc(S(=O)(=O)N2CCCCC2)cc1NC(=O)COc1ccccc1F	-7	·	i	·	·	1	100
